KCNQ2 enhance: enhances the rat KCNQ2 potassium channel; O88943; CHO-K1 KCNQ2, FluxOR thallium flux fluorescence; stronger effect = higher value; B-score at 10 µM; 310,000 tested, 0.54% active; AID 2239;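 active means fluorescence ratio B-score at least 3 SD of library B-scores, with initial fluorescence B-score within 3 SD, cut at about 5.3 in these data; same plate scores as AID 2156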;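 further: B-score of peak minus minimum over baseline fluorescence ratio after K+ and Tl+ stimulus; positive B-score means potentiation of KCNQ2 with more thallium influx and brighter signal; only the inactives scoring about 0 or higher are listed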
Target sequence (O88943 whole entry, looked up): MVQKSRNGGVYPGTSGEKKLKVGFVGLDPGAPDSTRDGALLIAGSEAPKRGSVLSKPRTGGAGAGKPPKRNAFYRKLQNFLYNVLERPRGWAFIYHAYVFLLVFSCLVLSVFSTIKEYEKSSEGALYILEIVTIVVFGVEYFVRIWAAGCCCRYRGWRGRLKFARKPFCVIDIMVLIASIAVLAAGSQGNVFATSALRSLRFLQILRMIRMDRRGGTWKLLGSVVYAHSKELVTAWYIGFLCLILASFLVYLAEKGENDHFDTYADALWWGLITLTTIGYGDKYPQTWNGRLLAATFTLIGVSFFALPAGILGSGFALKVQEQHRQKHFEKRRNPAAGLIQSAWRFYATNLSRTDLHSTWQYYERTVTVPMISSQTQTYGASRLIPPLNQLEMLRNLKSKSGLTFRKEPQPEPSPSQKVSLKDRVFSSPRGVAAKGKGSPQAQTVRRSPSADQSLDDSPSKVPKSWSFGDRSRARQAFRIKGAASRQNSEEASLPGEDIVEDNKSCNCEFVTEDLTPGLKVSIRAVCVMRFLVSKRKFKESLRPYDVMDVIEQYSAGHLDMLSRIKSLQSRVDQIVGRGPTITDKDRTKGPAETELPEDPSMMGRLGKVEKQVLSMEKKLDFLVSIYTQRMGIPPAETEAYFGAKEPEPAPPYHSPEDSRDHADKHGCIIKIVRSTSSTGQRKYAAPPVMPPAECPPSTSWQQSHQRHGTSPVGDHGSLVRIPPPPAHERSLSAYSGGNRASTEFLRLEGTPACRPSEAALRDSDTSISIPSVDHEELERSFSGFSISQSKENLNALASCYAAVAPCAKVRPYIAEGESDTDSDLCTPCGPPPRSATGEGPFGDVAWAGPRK
KCNQ2 enhance baseline: further read-out of KCNQ2 enhance, marked with its call; B-score; compound at 10 µM; measured here: initial fluorescence intensity artifact check;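 brightness before thallium and not channel activity; 0 = typical well and far values either way flag optical interference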
* hit, by the source's call.

KCNQ2 enhance baseline | KCNQ2 enhance | structure
1.3 | 0.94 | CCOC(=O)CN1C(=O)N[C@@H](c2cccc(C(F)(F)F)c2)[C@@H](C(=O)OC)[C@H]1C
0.38 | 0.93 | Cc1ccc(NC(=O)CSc2nc(NS(=O)(=O)c3ccccc3)cc(=O)[nH]2)cc1
-1.9 | 1.2 | COC(=O)Cc1csc(Nc2ccccc2Cl)n1
2.3 | 0.84 | CCc1ccc(NC(=O)CN2C(=O)C(=O)N(Cc3ccccc3)C2=O)cc1
-0.32 | 0.02 | CC(C)C(=O)OCC(=O)Nc1ccc(N=Nc2ccccc2)cc1
0 | 0.93 | CCCCCCNC(=O)CCNS(=O)(=O)c1ccc(C)cc1
0.42 | 1.5 | Nn1c(SCC(=O)NCc2ccccc2)nncc1=O
-2.1 | 1.2 | CCC(C)NC(=O)C1CCC(CNS(=O)(=O)c2cccc3nsnc23)CC1 (stereo not given)
0.28 | 1.3 | CCC(CC)c1nnc(NC(=O)CCN2C(=O)c3ccccc3C2=O)s1
-1.4 | 1.3 | CCOc1ccc2[nH]c3c(NCCOC)ncnc3c2c1
-0.11 | 0.49 | Cc1nn2c(=O)cc(CSc3ccccc3NC(=O)c3ccccc3)nc2s1
0.04 | 0.97 | CC1CCCC(NC(=O)c2n[nH]c(=O)c3ccccc23)C1C (stereo not given)
0.03 | 1.2 | C=CCNC(=O)Nc1ccc(F)cc1F
0.45 | 0.01 | O=C(c1cc(-c2ccc(Cl)cc2Cl)on1)N1CCCC1
0.65 | 0.02 | CCOCCCNC(=O)Cc1ccc(-n2c(CC)nc3cccnc32)cc1
-1.8 | 0.52 | Cc1ccc(-c2cc3ccccc3nc2N2CCCC2)cc1
-0.07 | 0.45 | NCCCC[C@H]1CNC(=O)C(=O)N1CC1CCCCC1
2.1 | 0.01 | COC(=O)[C@H](CCSC)NC(=O)Nc1ccc(C)cc1
-0.62 | 0.64 | O=C(CN1C(=O)S/C(=C\C=C\c2ccccc2)C1=O)NC1CCS(=O)(=O)C1 (stereo not given)
-0.47 | 0.03 | COc1ccc(C(=O)OCC(=O)c2ccccc2)cc1S(=O)(=O)N1CCOCC1
-0.82 | 0.17 | COc1ccc(-c2cc(=O)c3ccccc3n2C)cc1
1.6 | 0.97 | CC(C)(C#N)NC(=O)C1CCCN1S(=O)(=O)c1ccc2ccccc2c1 (stereo not given)
1.8 | 0.06 | O=C(CNC(=O)c1cccs1)NCC(=O)OCc1ccc(F)cc1
-1.2 | 0.96 | CCCN1CCC(NC(=O)CCc2nnc(Cc3cc(OC)ccc3OC)o2)CC1
-0.11 | 0.28 | Cc1cccc(-c2nnc(SCC(=O)O)n2Cc2ccccc2)c1
-1.9 | 1.6 | COc1ccc(F)cc1CN1CCN(C(=O)CCC(=O)Nc2nnc(CC(C)C)s2)CC1
0.15 | 0.71 | COc1cccc(CN(C(=O)CN2C(=O)c3ccccc3S2(=O)=O)C(C(=O)NCC2CCCO2)c2ccco2)c1 (stereo not given)
-0.04 | 1.4 | Cc1ccc2cccc(N)c2n1
-1.6 | 0.08 | Cc1cccc(NC2SC(=O)N(CC(=O)O)C2=O)c1 (stereo not given)
0.09 | 0.61 | CCOc1cc(/C=C/C(=O)NCCc2ccc(S(N)(=O)=O)cc2)ccc1OCC(C)C

Part of the list above, with each value named:
> CC(C)C(=O)OCC(=O)Nc1ccc(N=Nc2ccccc2)cc1
  KCNQ2 enhance baseline: -0.32
  KCNQ2 enhance: 0.02

> Nn1c(SCC(=O)NCc2ccccc2)nncc1=O
  KCNQ2 enhance baseline: 0.42
  KCNQ2 enhance: 1.5

> CCCCCCNC(=O)CCNS(=O)(=O)c1ccc(C)cc1
  KCNQ2 enhance baseline: 0
  KCNQ2 enhance: 0.93

Single records, as listed above. Order of values: KCNQ2 enhance baseline, KCNQ2 enhance
`Cc1cccc(NC2SC(=O)N(CC(=O)O)C2=O)c1` (stereo not given) is entered as -1.6, 0.08
`Cc1ccc(-c2cc3ccccc3nc2N2CCCC2)cc1` is entered as -1.8, 0.52

More results:
KCNQ2 enhance baseline | KCNQ2 enhance | structure
0.11 | 1.4 | CCOC(=O)C1=C(O)/C(=C/c2cc(OC)c(O)c(OC)c2)SC1=Nc1ccc(OC)cc1
0 | 2.2 | COc1ccc(/C=N/Nc2cc(C)nc(N3CCOCC3)n2)cc1OC
-0.04 | 3.8 | COc1ccccc1C(=O)Oc1cc(N)n(S(=O)(=O)c2ccc(C)cc2)n1
-0.04 | 1.2 | O=C(Cc1ccc(S(=O)(=O)N2CCOCC2)s1)Nc1ccccc1Br
-0.42 | 0.52 | COc1ccc(S(=O)(=O)NC(C)C(=O)NCc2ccccn2)cc1Cl (stereo not given)
0 | 1 | CCOc1cccc2sc(=NC(=O)CCS(=O)(=O)c3ccccc3)n(CC)c12
-0.59 | 2.2 | O=C(NCC(c1ccc(F)cc1)N1CCOCC1)c1ccc(C(=O)c2ccccc2)cc1 (stereo not given)
-0.34 | 1.2 | Cc1ccc2c(c1)[nH]c1c(=O)n(Cc3ccccn3)cnc12
-1.1 | 0.59 | O=C(COc1cc2oc(=O)c3c(c2cc1Cl)CCCC3)NCC1CCC(C(=O)O)CC1 (stereo not given)
1.1 | 0.57 | COc1ccc(/C=N/NC(=O)CN(C)C(=O)OCc2ccccc2)cc1OC
-0.02 | 1 | COc1cc(NS(=O)(=O)c2ccc(-c3ccc(=O)[nH]n3)o2)cc(OC)c1OC
0.57 | 0.33 | O=C(c1cc2ccccc2oc1=O)N(Cc1cccs1)C1CCS(=O)(=O)C1 (stereo not given)
0.9 | 0.48 | CNC(=O)c1cn(-c2ccccc2)c(=O)c2ccccc12
0.01 | 2 | CCC1CCCCN1CC(O)Cn1c2ccccc2n2c(=O)cc(C)c(C#N)c12 (stereo not given)
1.4 | 0.77 | COc1ccc(Cn2nnnc2CN2CCC(O)(c3ccccc3F)CC2)cc1
0.1 | 2.8 | O=C(c1ccc(Cn2cc(Br)cn2)cc1)N1N=C(C(F)F)CC1(O)C(F)F (stereo not given)
0.04 | 0.92 | CC1(C)C2CCC1(CS(=O)(=O)N1CCOCC1)C(=O)C2 (stereo not given)
-0.55 | 1.2 | Cc1ccc(C)c(N2CCN(C(=O)Cn3cccc3)CC2)c1
1.5* | 9.1* | N=C1S/C(=C\c2ccco2)C(=O)N1c1nccs1
-1.1 | 1.3 | Cn1ccc(NC(=O)Nc2cccc(C(F)(F)F)c2)n1
1.6 | 0.13 | CCOC(=O)c1ccc(N2CN(C3CCCCC3)CNC2=S)cc1
-0.38 | 0.96 | Cc1ccc2oc(=O)n(CC(=O)c3ccc(F)cc3)c2c1
-1.1 | 0.66 | CCOc1cc2[nH]c(=S)n(CCCCC(=O)NCc3ccco3)c(=O)c2cc1OCC
1.8 | 0.36 | CCCCCCCCNC(=O)c1cnsn1
2.5 | 0.4 | COC(=O)c1sc(NC(=O)c2ccc(C)o2)nc1C
1.2 | 0.24 | CNc1ccccc1C(=O)OC(C)C(=O)Nc1ccc(S(=O)(=O)N2CCCC2)cc1 (stereo not given)
1.1 | 0.75 | CC(=O)Nc1c(O)nc(SCC(=O)Nc2c(C)cccc2C)[nH]c1=O
-0.98 | 1.6 | CCOc1ccc(NC(=O)C2CCN(c3nnnn3-c3ccccc3)CC2)cc1
-0.1 | 1.5 | Cc1ccc(SC[C@H](CC(C)C)N2CCN(C)CCC2=O)cc1
-1.3 | 1.5 | CCCN1CCC(N(C)CCc2ccc(OC)c(OC)c2)CC1

A portion taken from the entries so far, as a working copy:
KCNQ2 enhance baseline | KCNQ2 enhance | structure
0.11 | 1.4 | CCOC(=O)C1=C(O)/C(=C/c2cc(OC)c(O)c(OC)c2)SC1=Nc1ccc(OC)cc1
0 | 2.2 | COc1ccc(/C=N/Nc2cc(C)nc(N3CCOCC3)n2)cc1OC
-0.04 | 3.8 | COc1ccccc1C(=O)Oc1cc(N)n(S(=O)(=O)c2ccc(C)cc2)n1
-0.04 | 1.2 | O=C(Cc1ccc(S(=O)(=O)N2CCOCC2)s1)Nc1ccccc1Br
-0.42 | 0.52 | COc1ccc(S(=O)(=O)NC(C)C(=O)NCc2ccccn2)cc1Cl (stereo not given)

Looked up one by one from above:
KCNQ2 enhance baseline | KCNQ2 enhance | structure
-1.1 | 1.3 | Cn1ccc(NC(=O)Nc2cccc(C(F)(F)F)c2)n1
1.5* | 9.1* | N=C1S/C(=C\c2ccco2)C(=O)N1c1nccs1
1.2 | 0.24 | CNc1ccccc1C(=O)OC(C)C(=O)Nc1ccc(S(=O)(=O)N2CCCC2)cc1 (stereo not given)
-0.59 | 2.2 | O=C(NCC(c1ccc(F)cc1)N1CCOCC1)c1ccc(C(=O)c2ccccc2)cc1 (stereo not given)
-0.55 | 1.2 | Cc1ccc(C)c(N2CCN(C(=O)Cn3cccc3)CC2)c1
-0.38 | 0.96 | Cc1ccc2oc(=O)n(CC(=O)c3ccc(F)cc3)c2c1

Going on with the list:
KCNQ2 enhance baseline | KCNQ2 enhance | structure
0.02 | 0.03 | COc1cc(C(=O)Nc2ccc(S(=O)(=O)N3CCCCC3C)cc2)cc(OC)c1OC (stereo not given)
-0.67 | 0.01 | CCCn1nc(C(=O)NNC(=O)Cc2ccc(S(=O)(=O)N3CCOCC3)s2)c2ccccc2c1=O
-0.69 | 0.13 | Cc1ccc(C)c(NC(=S)NC23CN4CN(CN(C4)C2)C3)c1
1.4 | 1 | Cc1cc(C)c2c(N)c3ccccc3nc2n1
-0.47 | 1.8 | COC(=O)C1CCN(S(=O)(=O)CCNC(=O)c2ccc3c(c2)OCO3)CC1
0.84 | 0.04 | CCC(Oc1ccc(C)cc1)C(=O)Nc1ccccc1C(=O)N1CCOCC1 (stereo not given)
-1.9 | 0.18 | Cc1cc(C)c[n+](-c2nc3ccccc3nc2[N-]S(=O)(=O)c2cccs2)c1
-1.2 | 0.99 | CC(=O)Nc1ccc(OCC(=O)NCCc2ccccc2)cc1

A portion of the library; rates above refer to the full screens.
